High-throughput results from PubChem BioAssay.
VDR inhibitor – Inhibitors of the vitamin D receptor (VDR): qHTS; Vitamin D3 receptor (Homo sapiens), P11473; VDR-SRC2-3 peptide fluorescence polarization, 2 h; Potency, µM, for inactives: max response, negative = inhibition, usual class: inhibitors; hit rate 0.93% among 400,000; AID 504847, 2011; active means well fitted inhibition curve with a large enough effect; inconclusive means small, poorly fitted or top-dose-only effect, or another doubt; inactive means no such curve, though single readings can be large or run the other way; further: series mostly up to about 120 µM
Target sequence (P11473 whole entry, looked up): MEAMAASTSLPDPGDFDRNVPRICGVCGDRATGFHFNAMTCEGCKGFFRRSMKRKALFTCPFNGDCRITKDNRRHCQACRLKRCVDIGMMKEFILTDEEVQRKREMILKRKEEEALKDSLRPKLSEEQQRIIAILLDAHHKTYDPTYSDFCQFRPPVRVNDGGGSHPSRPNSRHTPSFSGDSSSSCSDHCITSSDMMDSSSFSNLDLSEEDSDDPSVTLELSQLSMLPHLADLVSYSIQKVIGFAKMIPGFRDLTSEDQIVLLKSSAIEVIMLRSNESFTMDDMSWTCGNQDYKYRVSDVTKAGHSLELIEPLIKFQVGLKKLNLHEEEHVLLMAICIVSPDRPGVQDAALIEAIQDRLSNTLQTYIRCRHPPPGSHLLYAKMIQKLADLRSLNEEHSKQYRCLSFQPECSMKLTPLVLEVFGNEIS
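Compounds are added to VDR with labelled SRC2-3 coactivator peptide and held 2 h at room temperature. Inhibition of the VDR–peptide interaction is then read as a change in fluorescence polarization.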
* marks the source's active call; other numbers are inactive results; ? = inconclusive. On the % scale 0 is the no-effect control and ±100 the full control effect; potency means the concentration at half of the fitted maximal effect. Only part of the results is shown; rates above refer to the full screens.

Structure,VDR inhibitor
CCN(C(=N)N=C(N)N)c1ccccc1,-20%
CCn1c2ccccc2c2nnc(SCC(=O)NCCOC)nc21,12%
O=S(=O)(Nc1ccccn1)c1cccc(S(=O)(=O)c2ccc(Cl)cc2)c1,-14%
CCOc1cccc(-c2c(C(=O)N/N=C/c3ccncc3)nnn2-c2nonc2N)c1,3%
CCc1cccc(NC(=O)c2sc3nc[nH]c(=O)c3c2C)c1,19%
N#C/C(=C(/O)CSc1ncn[nH]1)c1nc2ccccc2[nH]1,-3%
CCCS(=O)(=O)c1nc(S(=O)(=O)c2ccc(C)cc2)c(N2CCN(C)CC2)s1,18%
NS(=O)(=O)c1ccc(CCNCc2ccccc2OCc2ccc(Cl)cc2)cc1,18%
O=C(c1csnn1)N1CCC[C@@]2(CCN(c3ccncc3)C2)C1,71µM*
C=CCNC(=O)c1ccc(-c2nc(-c3ccc(Cl)cc3Cl)cs2)cc1,12%
Cc1c(-c2cccc(NC(=O)c3ccc(F)c(F)c3)c2)nc2ncccn12,0%
Cc1ccc(S(=O)(=O)NCC(=O)OCN2C(=O)c3ccccc3C2=O)cc1,-24%
COc1ccc(/C=C(\NC(=O)c2cccs2)C(=O)NCc2ccco2)cc1OC,-12%
COc1ccccc1/C=N/NC(=O)c1ccc(CN2C(=O)c3cccc4cccc2c34)cc1,-4%
Cc1cc(C)c2c(N=NN(C)C)[nH]nc2n1,4%
COc1cc(OC)cc(-c2nc(-c3cc4cc(C)ccc4nc3OC)no2)c1,-13%
Cc1cc(C)n2nc(SCC(=O)Nc3ccc(S(=O)(=O)N(C)C)cc3)nc2n1,4%
O=C1N[C@@H](Cc2cn(S(=O)(=O)c3ccc([N+](=O)[O-])cc3)c3ccccc23)C(=O)N[C@H]1Cc1ccccc1,-7%
CCO[C@H]1OC(C(=O)N2CCN(Cc3ccc4c(c3)OCO4)CC2)=C[C@@H](C2CCCCC2)[C@@H]1CCCO,-19%
COC(=O)c1cc(C(=O)NCCCN2CCOCC2)cc([N+](=O)[O-])c1,6%

The list continues.
Structure,VDR inhibitor
CCOc1cc2[nH]c(=O)n(Cc3ccc(C(=O)NCCOC)cc3)c(=O)c2cc1OCC,-5%
COc1ccc(NC(=O)CC23CC4CC(CC(C4)C2)C3)cn1,5%
CSc1nc2sccc2c(=O)[nH]1,-10%
Cc1ccc(C)c(NC(=O)CSc2cccc3cccnc23)c1,-13%
CC(=O)Oc1ccc(C(C)=O)c2c1OCCO2,-10%
COc1ccc(SCc2noc(C(=O)NC(C)C)c2C(=O)O)cc1,-22%
COC(=O)/C(=C1/Oc2ccc(C(C)(C)C)cc2S1)C(F)(F)F,7%
O=C(c1ccc(Cl)c(S(=O)(=O)N2CCCC2)c1)N1CCCCC1,0%
CCc1nc(NCc2cccnc2)c2oc3ccccc3c2n1,5%
Cc1ccc(NC(=O)CCNC(=O)c2ccc(Cl)cc2)cc1F,11%
CCC(CO)Oc1cc(NC(=O)c2ccccc2N)c2ncn(C(C)C)c2c1 (centres undefined),1%
Cc1ccc(C(=O)Nc2cccc(C(F)(F)F)c2)cc1NC(=O)c1nccnc1N,-8%
CC12CCC(C(=O)Nc3ccccc3)(C(Br)C1=O)C2(C)C (centres undefined),4%
CCc1ncc(CN2CCCC(C(=O)Nc3ccc(-c4cscn4)cc3)C2)cn1 (centres undefined),-10%
COc1ccc(OC)c(/C=N/NC(=O)c2c(C)nc3ccc(C)cn23)c1,3%
O=C(Nc1ccc2c(c1)OCO2)c1c[nH]c(=O)n(-c2ccc(F)cc2)c1=O,7%
COc1ccc(C2NC(C(=O)O)CS2)cc1COCC(F)(F)F (centres undefined),-15%
CC1(C)CC(=O)C=C(Nc2ccc(F)cc2)C1,16%
CC(=O)NC1(c2ccccc2)CCN(CC(=O)N2CCC(C)CC2)CC1,-10%
COc1ccc(SC[C@H](CC(C)C)N2CCN(CCc3ccccc3)CCC2=O)cc1,11%

New compounds follow.
Structure,VDR inhibitor
CN(Cc1ccccc1)C(=O)COc1ccccc1Cl,-3%
COc1ccc(OC)c(NC(=O)c2ccc(-c3nc(CSc4ccccc4)c(C)o3)cc2)c1,5%
O=C(CN1C(=O)/C(=C\c2ccccc2F)SC1=S)Nc1nc2ccccc2s1,6%
Cc1nnc(NC(=O)CSc2ccc(-c3ccco3)nn2)s1,?
Cc1cc(C)c(C(=O)OCC(=O)NC(=O)c2ccccc2)c(C)c1,-8%
Cc1cc(C)cc(-n2c(SCC(=O)Nc3ccc4c(c3)OCCO4)nc3c([nH]c4ccccc43)c2=O)c1,3%
O=C(CSc1nc2c(c(=O)n1-c1ccc(Cl)cc1)SCC2)N1CCOCC1,-8%
CCC(C)(C)NC(=O)c1cc(OC)c(OC)cc1[N+](=O)[O-],-16%
NC(=O)C1CCN(C(=O)c2ccc(-c3ccccc3)cc2)CC1,12%
CCCn1c(-c2cccnc2Cl)nc2cc(Cl)c(Cl)cc21,-9%
CC(CN1CCCCC1)OC(=O)CCc1ccccc1 (centres undefined),8%
CCn1c(CSCc2ccc(C)cc2)nnc1SCC(=O)N1CCN(c2ccccc2)CC1,14%
COc1ccc(NC(=O)C2CCN(S(=O)(=O)c3ccc4c(c3)CCCC(=O)N4)CC2)cc1Cl,6%
CCCS(=O)(=O)c1nc(S(=O)(=O)c2ccc(C)cc2)c(N(CC)CC)s1,2%
O=C1CC2(CCCCC2)Oc2ccccc21,-12%
CCOc1ccccc1C(=O)OCC(=O)Nc1nnc(-c2ccccc2)o1,-27%
CS(=O)(=O)c1ccccc1-c1csc(N2CCC(C(N)=O)CC2)n1,-5%
N/C(=N\OC(=O)Cc1ccc(-c2ccccc2)cc1)c1ccncc1,3%
COc1ccc(CCNC(=O)C(C)OC(=O)c2nsc(Cl)c2Cl)cc1OC (centres undefined),9%
COc1ccccc1CNC(=O)CCC(=O)N1Cc2cccc(OC)c2Oc2ncccc21,3%

(continued)
Structure,VDR inhibitor
CCN(CC)CCN(Cc1cc2ccc(C)cc2[nH]c1=O)C(=S)Nc1ccccc1C(=O)OC,3%
Cc1cccc(N2CCN(C(=O)COc3cc(=O)n(C)c4ccccc34)CC2)c1C,5%
CCSC1(SCC)N=C(N)C2(C#N)C(c3ccc(OC)c(OC)c3OC)C12C#N (centres undefined),?
COC(=O)c1[nH]c2ccc(F)cc2c1NS(=O)(=O)c1ccc(F)c(C)c1,6%
Cn1ccnc1SCC(=O)NC1CCCC1,-1%
Cc1ccc(SCCC(=O)OC(C)C(=O)Nc2ccccc2)cc1 (centres undefined),-6%
O=C(O)c1ccc2c(c1)C(=O)N(c1ccc(Cl)cn1)C2=O,12%
O=C(NCc1cccnc1)c1nc(-c2ccccc2)n(-c2ccccc2)n1,4%
COc1cc(C)nc(Oc2ccc(/C=N/O)cc2)n1,-2%
COc1cc(CC(=O)OCC(=O)Nc2cc([N+](=O)[O-])ccc2F)cc(OC)c1OC,-29%
Cc1ccc2c(C)c(C(=O)N3CCCCC3CO)oc2c1C (centres undefined),-12%
CC(=O)Nc1ccc(S(=O)(=O)N(C)c2ccc(OCC(=O)NCCc3ccccc3F)cc2)cc1,-2%
CCOc1ccccc1/C=N/NC(=O)c1cccc(S(=O)(=O)N(CC)CC)c1,10%
CCN(CC)C(=O)Cn1cc(S(=O)(=O)CC(=O)NCCc2ccccc2)c2ccccc21,-20%
CN(C)/C=N/C(=S)Nc1ccc(Br)cc1F,10%
O=C(NCC1CCCO1)c1ccc2c(c1)C(=O)N(c1cccc([N+](=O)[O-])c1)C2=O (centres undefined),9%
CCOc1ccccc1NC(=O)C1CCN(S(=O)(=O)c2ccc(OC)c(OC)c2)CC1,25%
O=C(c1cc2ccccc2c(=O)o1)N1CCc2ccccc2C1,13%
Cc1ccc(S(=O)(=O)NCCN2CCOCC2)cc1,-13%
COCCCNC(=O)c1ccc2c3c(onc13)-c1ccccc1C2=O,35µM*

Other results.
Structure,VDR inhibitor
CCCN1C(=O)c2[nH]nc(-c3ccccc3O)c2C1c1cccc(OCc2ccccc2)c1 (centres undefined),12%
Cc1ccc(C(=O)O/N=C(\N)c2ccccc2)c(Cl)c1,6%
O=C(NNC(=O)c1cccs1)c1ccc(Cl)nc1,-11%
Cc1cc2ccccn2c1C(=O)Nc1ccc(Cl)cc1,-17%
O=C(CN1C(=O)NC2(CCCC2)C1=O)NNC(=O)c1ccc(Cl)cc1,16%
COc1ccccc1CN(C)C(=O)CNC(=O)c1cccc(Cl)c1,-1%
CCOc1cc(/C=C2/C(=O)ON=C2C)ccc1OCc1ccc(F)cc1,79µM*
COc1ccc(C2c3c(oc4ccccc4c3=O)C(=O)N2CCCN2CCOCC2)cc1 (centres undefined),-25%
CC1(C)C=Cc2c(ccc3c2OC[C@@H](c2ccc(O)cc2O)C3)O1,-3%
CCc1ccc(NC(=O)Cn2nnc(C(=O)NCCc3ccc(OC)c(OC)c3)c2N)cc1,-3%
CCNc1cc(S(=O)(=O)C(F)(F)F)ccc1N,10%
COc1ccc(-c2nc3cnc(N(C)C)nc3n(C3CC3)c2=O)cc1,-4%
Cc1ccc(CSc2nccc(-c3c(C)nc4ccccn34)n2)cc1,-5%
COc1cc(NC(=O)c2cc([N+](=O)[O-])ccc2Br)ccc1NC(=O)c1ccco1,-12%
O=c1[nH]c(C2CCN(S(=O)(=O)c3ccccc3F)CC2)nc2c1nnn2Cc1ccc(OC(F)(F)F)cc1,-7%
COc1ccc(C(F)(F)F)cc1NC(=O)c1sc2nc(-c3cccs3)ccc2c1N,-20%
COc1ccc(S(=O)(=O)NC(C)C(=O)NCc2ccco2)cc1OC (centres undefined),7%
O=C(NCC1CCCO1)c1ccccc1OCc1ccc(F)cc1 (centres undefined),-12%
Cc1cccc(C2=NOC(=O)/C2=C\c2ccccc2F)c1,-13%
CC(C)(C)OC(=O)N1CCC(C(=O)NNC(=O)c2ccc(Cl)cc2Cl)CC1,-9%

Continued:
Structure,VDR inhibitor
COc1cc(C(=O)NNC(=O)CN2C(=O)NC3(CCCC3)C2=O)cc(OC)c1OC,5%
CN(CCC#N)C(=O)c1ccc(CNS(=O)(=O)c2ccc(F)cc2)cc1,8%
CCC(=O)N1CCc2cc(S(=O)(=O)CCC(=O)N3CCN(c4cccc(Cl)c4)CC3)ccc21,-21%
Cc1ccc(NC(=O)COC(=O)C2CC(=O)N(Cc3ccccc3)C2)cc1S(=O)(=O)N(C)C (centres undefined),0%
O=C(CSc1ccc2nnc(-c3ccncc3)n2n1)NCc1ccco1,-13%
O=C1C=CC(=O)N1Cc1ccccc1,16µM*
CS(=O)(=O)N(CCc1ccccc1)CC(=O)NCC1CCCO1 (centres undefined),3%
CCOC(=O)C1=C(CS(=O)(=O)c2ccc(F)c(C)c2)NC(=O)NC1c1ccccc1OC (centres undefined),-1%
C/C(=N\NC(=O)c1nc2ccccn2c1C)c1cc2ccccc2o1,3%
CCN(CC)C(=O)Cn1c(=O)n(Cc2ccc(C(=O)NCCc3ccc(OC)c(OC)c3)cc2)c(=O)c2ccccc21,1%
Cc1cc(C)cc(S(=O)(=O)N2CCN(c3nc(-c4cccs4)nc4ccccc34)CC2)c1,6%
O=C(OCc1cc(=O)n2c3c(sc2n1)CCCC3)c1cccc(NC(=O)c2ccccc2F)c1,10%
CCC(C)NC(=O)c1ccc(CS(=O)(=O)c2ccc(OC)cc2)o1 (centres undefined),13%
O=C(c1ccc(NS(=O)(=O)c2ccc(F)cc2)cc1)N1CCC1,3%
CCN1CCOC(=O)C1CC(=O)Nc1cc(C)cc(C)c1 (centres undefined),-21%
Cc1ccc(OCCCCN2CCC(C)CC2)c(Br)c1,-1%
CSCCCNC(=O)c1ccc(OC2CCN(C(=O)c3cccnc3)CC2)cc1,-3%
O=C(CCC(=O)N1CCN(c2cccc(Cl)c2)CC1)c1cccs1,11%
COc1cc(C(=O)NCC(=O)OCC(=O)Nc2nnc(-c3ccccc3)o2)cc(OC)c1OC,-19%
COCC(C)n1c(SCC(=O)NC(=O)Cc2ccccc2)nc2ccccc2c1=O (centres undefined),5%

(continued)
Structure,VDR inhibitor
NS(=O)(=O)c1ccc(NC(=S)Nc2ccc(OCc3ccccc3)cc2)cc1,-2%
CCCCCCCCOC(=O)C1=C(C)Nc2nnnn2C1c1cccs1 (centres undefined),-17%
CCc1ccc(NC(=O)c2cc(S(=O)(=O)N3CCc4ccccc43)cn2C)cc1,-30%
O=[N+]([O-])c1ccc(N2CCN(Cc3ccccc3)CC2)nc1,5%
COc1ccccc1NC(=O)CC1C(=O)Nc2ccccc2N1C(=O)c1ccccc1 (centres undefined),-4%
